D2 ag: human D2 receptor agonism in beta-arrestin assay; actives 0.084% (n = 360,000); AID 624465; DiscoveRx PathHunter D2 beta-arrestin, luminescence, 90 min; 100% = 57 uM dopamine signal; activation, % (test concentration not listed); P14416; in the data active = activation above about 40%; inconclusive = about 15% to 40%; inactive = below about 15%; note: compound concentration not given in the record; the text of the record calls up to 30% inactive
Target sequence (P14416 whole entry, looked up): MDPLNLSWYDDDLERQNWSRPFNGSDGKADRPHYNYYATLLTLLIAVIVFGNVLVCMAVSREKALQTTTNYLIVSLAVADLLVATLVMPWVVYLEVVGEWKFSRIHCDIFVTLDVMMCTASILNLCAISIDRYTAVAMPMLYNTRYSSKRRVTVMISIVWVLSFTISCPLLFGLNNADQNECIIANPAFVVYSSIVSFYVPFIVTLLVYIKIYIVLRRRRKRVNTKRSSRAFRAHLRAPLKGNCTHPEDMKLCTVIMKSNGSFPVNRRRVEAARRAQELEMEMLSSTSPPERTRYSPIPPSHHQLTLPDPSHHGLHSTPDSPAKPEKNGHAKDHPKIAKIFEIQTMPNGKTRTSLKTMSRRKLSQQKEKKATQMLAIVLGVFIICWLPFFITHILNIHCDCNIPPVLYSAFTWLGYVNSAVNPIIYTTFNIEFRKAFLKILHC
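DiscoveRx PathHunter D2 beta-arrestin cells (2,100/well) attached overnight, then compound-stimulated 90 min at 37 C in HBSS/10 mM HEPES/0.1% Tween-20 buffer; beta-galactosidase complementation read by luminescence after 1 h at ambient temperature. Dopamine 57 uM final (EC100) as control.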
gsp ag: activates gsp, the McCune-Albright syndrome mutation; gsp mutant cells, cAMP HTRF, 30 min; control for the full effect not named in the record; Potency, µM (highest dose often 76.9 µM), inactives show at the top dose activation (cAMP increase), usual class: activators; actives 0.13% (n = 340,000); active = well fitted activation curve with a large enough effect; inconclusive = small, poorly fitted or top-dose-only effect, or another doubt; inactive = no such curve, though single readings can be large or run the other way; cell line not stated here;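 note: phosphodiesterase inhibitor Ro 20-1724 added with compounds to block cAMP breakdown; potency is the fitted concentration of half-maximal effect; nearly all actives have a fitted effect of over 60% in size; about a fifth of the inactives were tested at one dose only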
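Cells stably selected in G418 were plated at 2000/well, grown 16-24 hr, then given compounds in DMSO with the PDE inhibitor […] (300 uM solution added) for 30 min at 37C; cAMP was read by HTRF.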
CtBP-E1A inh: CtBP/E1A binding inhibition | AlphaScreen GST-E1A/His-CtBP binding, 1536-well; active compounds read low; control for the full effect not named in the record | actives 0.49% (n = 340,000) | activity change, % (concentration not given with the values) | AID 651724; in the data active means activity change below about -65%; inconclusive means about -30% to -65%; inactive means above about -30%; note: % is set by controls: 0 for no effect and ±100 for the full control effect
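AlphaScreen with 125 nM GST-E1A and 125 nM His-CtBP (5X stocks) in Tris pH 8.0, 300 mM NaCl, BSA, Tween 20, TCEP. Compounds preincubated 2 h at 37 deg C, then glutathione donor/nickel acceptor beads added for 1 h at 37 deg C in dark.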
D2 PAM: positive allosteric modulators of human D2 dopamine receptor; potentiation, % (test concentration not listed); actives 0.23% (n = 360,000); DiscoveRx D2 beta-arrestin cells, luminescence, 90 min; 100% = 57 uM dopamine signal; active = potentiation of 50% or more; inconclusive = 30% to 50%; inactive = 30% or less;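 note: compound concentration not given in the record; tested on top of an EC20 dose of dopamine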
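PathHunter D2 cells, attached overnight at 37 deg C, received compound in DMSO plus dopamine at EC20 (50 nM final) for 90 min at 37 deg C. Beta-arrestin recruitment was read as luminescence after 1 h with detection reagent at ambient temperature.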
gsp antag: antagonizes gsp, the McCune-Albright syndrome mutation. actives 0.4% (n = 340,000). Potency, µM (titrated, usually from 76.9 µM), inactives show at the top dose activity change, negative = inhibition, usual class: inhibitors. gsp-mutant cells, cAMP HTRF, 30 min; control for the full effect not named in the record; active = falling curve of any shape with a large fitted effect; inconclusive = falling curve, mostly with a smaller effect; inactive = flat or rising curve; cell line not stated here;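 note: intracellular cAMP measured with PDE inhibitor Ro 20-1724 present during compound exposure; potency is the fitted concentration of half-maximal effect; % is set by controls: 0 for no effect and ±100 for the full control effect; nearly all actives have a fitted effect of over 65% in size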
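HTRF cAMP measurement after 30 min RT detection following 30 min, 37C compound treatment alongside […] (added as 300 uM solution) in G418-selected cells seeded at 2000/well and grown 16–24 h.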
Six1-Eya2 inh: inhibitors of human Six1/Eya2 interaction; activity change, % (no concentration beside the values); AID 651725; AlphaScreen GST-Six1/His-Eya2 binding, biochemical; active compounds read low; control for the full effect not named in the record; actives 0.56% (n = 360,000); in the data active = activity change below about -65%; inconclusive = about -30% to -65%; inactive = above about -30%; note: % is set by controls: 0 for no effect and ±100 for the full control effect
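Compounds are tested against tagged Six1 and Eya2 proteins bridged by glutathione donor and nickel acceptor beads; after a one-hour incubation at 37 °C without light, AlphaScreen emission is recorded.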
* hit, by the source's call; [ ] = another dose, or the depositor's remark.

Screening COc1cc(Cl)ccc1OCc1cc(C(=O)N[C@H]2CCCCNC2=O)no1 returned D2 ag 3.8, gsp ag 13.2%, CtBP-E1A inh 5.6, D2 PAM 7.0, gsp antag -2.3% and Six1-Eya2 inh 3.3.
For C=CC[C@H](CC(=O)N[C@H](CO)Cc1ccccc1)C(=O)N[C@H](COC(=O)[C@@H](CC=C)CC(=O)OC(C)(C)C)Cc1c[nH]c2ccccc12 the results were D2 ag 0.4, gsp ag -11.8%, D2 PAM -0.1, gsp antag -13.3% and Six1-Eya2 inh -5.2.
CCN(Cc1ccccc1)S(=O)(=O)c1cc2[nH]c(=O)c(=O)[nH]c2cc1C was read as D2 ag -3.1, gsp ag 11.8%, CtBP-E1A inh -26.5, D2 PAM -1.6, gsp antag 2.9% and Six1-Eya2 inh 1.5.
Nc1ccc(S(=O)(=O)c2ccc(N)c(N)c2)cc1 was read as D2 ag 1.5, gsp ag inconclusive, CtBP-E1A inh -2.9, D2 PAM -0.7, gsp antag -0.7% and Six1-Eya2 inh -5.2.
For CC(C)CN1C(=O)C(=O)N(CC(=O)N(C)CC(=O)Nc2ccc(Cl)c(C(F)(F)F)c2)C1=O the results were D2 ag -3.4, gsp ag -5.6%, CtBP-E1A inh -10.2, D2 PAM -16.8, gsp antag 0.1% and Six1-Eya2 inh 0.4.
Screening Cc1nc(SCc2cccc(F)c2)[nH]c(=O)c1C#N returned D2 ag -2.0, gsp ag inconclusive, CtBP-E1A inh 6.6, D2 PAM 3.2, gsp antag -22.9% and Six1-Eya2 inh 1.6.
`C=CCN1C(=O)N/C(=C/c2ccc(C)o2)C1=O` gave D2 ag -11.1, gsp ag -37.3%[inhibitor], D2 PAM -20.8, gsp antag 1.2% and Six1-Eya2 inh -7.3.
`Cc1cc(NCCCCO)n2c(nc3ccccc32)c1C#N` gave D2 ag 1.1, gsp ag 8.2%, CtBP-E1A inh 0.0, D2 PAM 4.0, gsp antag -0.8% and Six1-Eya2 inh -23.3.
COc1cccc(/C=N/Nc2cc(Cl)nc(C)n2)c1O was read as D2 ag 1.9, gsp ag 4.5%, D2 PAM -8.6, gsp antag 1.0% and Six1-Eya2 inh -8.7.
Screening O=C(CN1CCN(S(=O)(=O)c2ccc3ccccc3c2)CC1)NC(=O)NC1CCCCC1 returned D2 ag -2.7, gsp ag 17.7%, CtBP-E1A inh 17.9, D2 PAM -6.3, gsp antag 3.9% and Six1-Eya2 inh -23.0.
COc1ccc(NC2C=CS(=O)(=O)C2)c(OC)c1 (stereo not drawn) was read as D2 ag 1.6, gsp ag 23.0%, CtBP-E1A inh -8.6, D2 PAM 3.3, gsp antag -11.1% and Six1-Eya2 inh -8.0.
`C/C(=N\NC(=O)c1ccc(Cl)c(Cl)c1)c1ccccn1` gave D2 ag -9.3, gsp ag 2.9%[15.4 µM], CtBP-E1A inh inconclusive, D2 PAM -12.5, gsp antag -10.1% and Six1-Eya2 inh inconclusive.
For C=CCOc1ccc(C(=O)Nc2ncn[nH]2)cc1 the results were D2 ag -4.4, gsp ag 2.5%, D2 PAM -22.5, gsp antag 2.2% and Six1-Eya2 inh 0.0.
`Nc1c(N(Cc2ccco2)C(=O)c2cccc(Cl)c2)c(=O)[nH]c(=O)n1Cc1ccccc1` gave D2 ag 0.1, gsp ag 7.7%, D2 PAM -7.4, gsp antag -1.8% and Six1-Eya2 inh 0.5.
`Cc1ccc(NC(=O)COC(=O)CN2C(=O)NC3(CCCC3)C2=O)cc1S(=O)(=O)N(C)C` gave D2 ag -0.2, gsp ag -29.7%, CtBP-E1A inh 3.8, D2 PAM -5.5, gsp antag 1.1% and Six1-Eya2 inh 1.1.
COc1ccc(S(=O)(=O)N2CCCCCC2)cc1C(=O)N(C)Cc1ccc(F)cc1 was read as D2 ag -0.4, gsp ag -8.7%, CtBP-E1A inh -20.5, D2 PAM -7.3, gsp antag -1.5% and Six1-Eya2 inh -0.7.
For CCCc1cc(=O)[nH]c(SCC(=O)CSc2nc(CCC)cc(=O)[nH]2)n1 the results were D2 ag -6.1, gsp ag 1.4%, CtBP-E1A inh -2.5, D2 PAM -34.2, gsp antag 1.1% and Six1-Eya2 inh -2.7.
Screening Cc1ccc(-c2cc(NC(=O)c3ccccc3[N+](=O)[O-])n[nH]2)cc1 returned D2 ag 4.3, gsp ag -15.9%, D2 PAM -21.8, gsp antag -15.8% and Six1-Eya2 inh -13.4.
For COC(=O)c1scc(C)c1NC(=O)c1ccc(Cl)cc1 the results were D2 ag -1.8, gsp ag 11.0%[15.4 µM], CtBP-E1A inh -2.0, D2 PAM -5.8, gsp antag -2.0% and Six1-Eya2 inh 9.6.
Screening CC(C)C(OC(=O)CN1C(=O)c2ccccc2C1=O)C(=O)NC1CCCC1 (stereo not drawn) returned D2 ag 0.0, gsp ag 25.6%[15.4 µM], CtBP-E1A inh 0.0, D2 PAM -9.9, gsp antag -13.2% and Six1-Eya2 inh 2.0.
Screening COc1ccc(Cl)cc1C(=O)CSc1nc(N)cc(N)n1 returned D2 ag -0.4, gsp ag 9.7%, CtBP-E1A inh 3.8, D2 PAM -13.4, gsp antag -4.5% and Six1-Eya2 inh -2.9.
`COCCNC(=O)CN(C(=O)Cn1nnc2ccccc21)c1ccc(C)c(F)c1` gave D2 ag -1.1, gsp ag inconclusive, CtBP-E1A inh 45.2, D2 PAM 4.0, gsp antag -3.5% and Six1-Eya2 inh 0.0.
Screening CC(C)CNC(=O)C1(C)CCCN1C(=O)c1c(Cl)cccc1Cl (stereo not drawn) returned D2 ag -4.4, CtBP-E1A inh 10.1, D2 PAM -6.6 and Six1-Eya2 inh 14.6.
For CSC(=NC#N)N1CCN(c2ccc([N+](=O)[O-])cc2)CC1 the results were D2 ag 5.4, gsp ag inconclusive, CtBP-E1A inh -16.5, D2 PAM 2.9, gsp antag -6.7% and Six1-Eya2 inh 6.2.
`Cc1cccc(CS(=O)(=O)c2nnc([C@H](Cc3ccccc3)NC(=O)OC(C)(C)C)o2)c1` gave D2 ag -2.7, gsp ag 13.4%, CtBP-E1A inh 6.5, D2 PAM -30.6, gsp antag 9.9% and Six1-Eya2 inh 0.8.
CN(C)S(=O)(=O)c1cccc(NC(=O)COC(=O)c2ccc(Br)o2)c1 was read as D2 ag -0.2, gsp ag -19.7%, CtBP-E1A inh -0.3, D2 PAM 4.6, gsp antag 12.7% and Six1-Eya2 inh -1.2.
`CC(C)CNC(=O)c1ccc(-c2ccc(F)c(F)c2)c2ccoc12` gave D2 ag 6.0, CtBP-E1A inh 8.7, D2 PAM -11.1 and Six1-Eya2 inh 16.1.
Screening CCC[n+]1cn(/C(C(=S)Nc2cccc(Cl)c2C)=C(/[O-])c2ccc(OC)c(OC)c2)c2ccccc21 returned D2 ag -6.2, gsp ag 7.6%[15.4 µM], CtBP-E1A inh -20.5, D2 PAM -18.0, gsp antag -6.6% and Six1-Eya2 inh -1.7.
For CCC1(C)CC(CCN(Cc2ccco2)C(C)=O)(c2ccccc2)CCO1 (stereo not drawn) the results were D2 ag -0.5, gsp ag -2.9%, D2 PAM -5.5, gsp antag -17.6% and Six1-Eya2 inh -2.0.
Screening O=C(O)CSc1c(Cl)c(=O)oc2ccc(Cl)cc12 returned D2 ag -4.4, gsp ag -28.9%, CtBP-E1A inh -19.7, D2 PAM -6.7 and Six1-Eya2 inh -19.4.
For O=C(CCC(=O)c1ccc(F)cc1)OCc1nnc(-c2ccc([N+](=O)[O-])cc2)o1 the results were D2 ag 5.8, gsp ag -11.1%, CtBP-E1A inh -4.4, D2 PAM -0.4, gsp antag 6.4% and Six1-Eya2 inh -7.8.
For CSCC(C)N1CCC(n2nccc2NC(=O)c2ccccc2C)CC1 (stereo not drawn) the results were D2 ag 1.0, gsp ag 8.5%, CtBP-E1A inh 2.2, D2 PAM -3.4, gsp antag -4.0% and Six1-Eya2 inh 8.1.
Screening N#CC/C(N)=N/Nc1nc2ccccc2nc1Cc1ccccc1 returned D2 ag -1.9, gsp ag 6.6%[15.4 µM], CtBP-E1A inh -8.7, D2 PAM -1.3, gsp antag -9.3% and Six1-Eya2 inh -16.8.
`COC(=O)c1ccc(CNC(=O)/C=C/[C@H]2O[C@@H](n3cc(C)c(=O)[nH]c3=O)C[C@@H]2O)cc1` gave D2 ag -7.3, CtBP-E1A inh 0.3, D2 PAM -2.2 and Six1-Eya2 inh 16.4.
For CCOc1ccc2[nH]cc(C(=O)O)c(=O)c2c1 the results were D2 ag -2.2, gsp ag -9.0%, CtBP-E1A inh 6.5, D2 PAM -12.5, gsp antag -0.2% and Six1-Eya2 inh 7.3.
`COc1ccc(NC(=O)CCCn2c(=O)c3sccc3n(Cc3ccccc3C)c2=O)cc1` gave D2 ag -3.2, gsp ag -0.1%, CtBP-E1A inh 0.0, D2 PAM 2.9, gsp antag inconclusive and Six1-Eya2 inh 8.0.
For CSC1(SC2=NCCN2)SC2(NCCN2)S1 the results were D2 ag 0.7, gsp ag 3.9%, CtBP-E1A inh -1.5, D2 PAM -7.6, gsp antag -0.4% and Six1-Eya2 inh 5.7.
`OC(COc1ccc(Br)cc1)CN1CCCC1` (stereo not drawn) gave D2 ag -2.8, gsp ag 25.5%, CtBP-E1A inh 1.9, D2 PAM -18.7, gsp antag 4.4% and Six1-Eya2 inh 3.5.
COC(=O)C(=CC(=CN(C)C)C=C(C(=O)OC)C(=O)OC)C(=O)OC was read as D2 ag -5.7, gsp ag -12.4%[15.4 µM], CtBP-E1A inh 0.0, D2 PAM -11.6, gsp antag -1.1% and Six1-Eya2 inh 4.9.
O=C(NC1CCCCC1)C(c1ccncc1)N(Cc1ccc2c(c1)OCO2)C(=O)c1cnsn1 (stereo not drawn) was read as D2 ag -0.8, gsp ag -1.9%, CtBP-E1A inh 0.0, D2 PAM -0.9, gsp antag -8.1% and Six1-Eya2 inh 18.3.
`COc1ccc(NC(=O)C2CCCN(S(=O)(=O)c3cccc4nonc34)C2)c(OC)c1` (stereo not drawn) gave D2 ag -1.9, gsp ag 17.7%, CtBP-E1A inh 5.6, D2 PAM 3.3, gsp antag -3.5% and Six1-Eya2 inh -0.2.
For Cc1cccc(NC(=O)C2CCN(S(=O)(=O)c3ccc4c(c3)OCCCO4)CC2)n1 the results were D2 ag -3.8, gsp ag 7.5%[15.4 µM], CtBP-E1A inh -0.4, D2 PAM -2.6, gsp antag inconclusive and Six1-Eya2 inh -4.3.
Screening N#CC1=C(N)N2C(=C(C#N)C1c1ccc(Br)cc1)Nc1ccccc12 (stereo not drawn) returned D2 ag -3.6, gsp ag 51.3%, CtBP-E1A inh 9.6, D2 PAM 1.7, gsp antag inconclusive and Six1-Eya2 inh 5.5.
Screening COc1ccc(CC(=O)Nc2ccc(F)c(Cl)c2)cc1S(=O)(=O)N1CCOCC1 returned D2 ag -3.7, gsp ag 14.3%, D2 PAM -7.2, gsp antag -3.6% and Six1-Eya2 inh -1.6.

Screens from PubChem BioAssay.

The order is random (roughly 1.4% active in at least one column).
